Proteasome disasm: blocks ATP-dependent breakdown of the yeast 26S proteasome. inhibition of disassembly, % (no concentration beside the values). anti-FLAG beads, GFP-proteasome disassembly, flow cytometry. AID 751. hit rate 0.2% among 24,000;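 active = above 40%; inconclusive = likely self-fluorescent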;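 note: plate controls were ATP control with full disassembly for no effect and ATP-gamma-S intact proteasomes for full effect; higher percent means more bead fluorescence retained so stronger block of disassembly; stock transfer was 100 nL into about 10 µL; wells with too few beads may also be inconclusive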
VCAM-1 up: boosters of cytokine-driven VCAM-1 levels – cell-based, plate reader, pooled HUVEC, TNFa stimulus (AID 455). augmentation, % at 5 µM. HUVEC TNFa-induced VCAM-1 immunofluorescence, plate reader; numbers were filed only for top-ranked candidate wells. hit rate 0.2% among 10,000;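 active = a compound raising TNF-alpha-driven VCAM-1 surface staining, with its hit status upheld on visual or statistical review; inactive = the rest, including hits rejected on review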;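 note: 0% = TNFa with vehicle and 100% = strongest image-checked hit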
Numbers without * were called inactive; i = inactive; ? = inconclusive; / = not tested or not shown. An excerpt (hit frequency here may not be typical).

SMILES | Proteasome disasm | VCAM-1 up
CCOC(=O)C1=C(CSc2nc(C)cc(C)c2C#N)OC(N)=C(C#N)C1c1cccs1 (stereo unspecified) | 1.6 | i
CCC(C)COC(=O)c1ccc(C(=O)O)cc1 (stereo unspecified) | -1.6 | /
COc1ccc(-c2nc(N3CCOCC3)nc3nn4c(C)c(CCC(=O)O)c(C)nc4c23)cc1 | 0.1 | /
O=C(Cn1nc(Cc2cccnc2)c2ccccc2c1=O)NCc1ccc2c(c1)OCO2 | -5.8 | /
CCCS(=O)(=O)N1CCC(C(=O)NCCN(CC)c2ccccc2)CC1 | -1.1 | /
CCCN(CCC)CCCNC(=O)c1cc2cc3ccc(OC)cc3nc2o1 | -0.8 | /
CC1=C(C(=O)Nc2cccnc2)C(c2cccnc2)n2nc(-c3cccs3)nc2N1 (stereo unspecified) | 0.7 | /
Cc1ccc(C2CC(c3ccccc3C)n3nc(N)nc3N2)cc1 (stereo unspecified) | -1.1 | /
O=C1c2oc3ccc(F)cc3c(=O)c2C(c2cccc(O)c2)N1CCCN1CCOCC1 (stereo unspecified) | 0.7 | /
COC(=O)c1[nH]c2c(c1C)C(=O)CCC2 | 0.3 | /
CC(CCc1ccccc1)NC(=O)C1CCN(S(=O)(=O)c2cnc[nH]2)CC1 (stereo unspecified) | -3.3 | i
COc1cccc(C(=O)Nc2ccc3nc(N4CCN(c5ncccn5)CC4)cc(C)c3c2)c1OC | -0.5 | /
COC(=O)Cc1csc(N)n1 | 3.2 | i
COc1ccccc1N=Cc1nc(-c2ccccc2)oc1OC(C)=O | -0.1 | i
Cc1ccc(C)c(-n2c(CNC(=O)c3ccco3)nnc2SCC(=O)Nc2nccs2)c1 | 0.1 | /
O=C(C1CCCN(Cc2ccc3c(c2)OCO3)C1)N1CCCC1 (stereo unspecified) | -0.5 | /
O=C(NC(O)C(=O)c1cccs1)c1cccnc1 (stereo unspecified) | -0.8 | /
COc1ccc(C(CC(=O)Nc2nccs2)n2cccc2)cc1 (stereo unspecified) | -0.3 | /
CCCc1noc2c1C(c1ccoc1)C(C#N)=C(N)N2 (stereo unspecified) | 1.2 | /
COC(=O)C1C(=O)c2c([nH]c(C(=O)OC3CCCC3)c2C)CC1C (stereo unspecified) | 2.6 | /
CCOc1ccc(CCNC(=O)Cn2c(-c3nonc3N)nc3ccccc32)cc1OCC | 1.1 | /
Cc1ccc(S(=O)(=O)C2(C(=O)Nc3cccnc3)CC2)cc1 | -0.8 | i
COc1ccc2c(c1)CCc1c(C(=O)N3CCCc4ccccc43)noc1-2 | -2.3 | i
CCOc1cc(NC2CS(=O)(=O)CC2O)c(OCC)cc1NC(=O)c1ccccc1 (stereo unspecified) | 3.2 | /
CC(NS(C)(=O)=O)C(c1cccs1)N1CCN(c2ccc(F)cc2)CC1 (stereo unspecified) | -0.8 | /
CN1CCN(CC(=O)Nc2ccc(Cl)cc2Cl)CC1 | -2.5 | i
Nc1ccnc(C(F)(F)F)c1C(=O)c1ccccc1 | -0.1 | /
COc1ccc(OC)c(N2Cc3cc(C)c(C)cc3C2)c1 | ? | i
Cc1ccc(S(=O)(=O)NCCN2CCOCC2)cc1C | 3.5 | i
COC(=O)C1=C(C)C(c2cccs2)NC(=O)N1C (stereo unspecified) | 4.0 | i
CCN(CC)CCCNC(=O)C1CCC(=O)N(c2ccc(OC)cc2)C1c1ccc(F)cc1 (stereo unspecified) | 0.3 | /
Cc1ccccc1-c1nc(CS(=O)CC(=O)NCCN2CCN(Cc3ccccc3)CC2)c(C)o1 (stereo unspecified) | 0.0 | /
CC(=O)c1c(C)[nH]c(C(=O)NC2CCCCC2)c1C | 1.8 | /
Cc1ccccc1NC(=O)NCCN1C(=O)C2C3C=CC(C3)C2C1=O (stereo unspecified) | -3.7 | /
CCC(=O)Oc1ccc(C/C(=N\O)c2ccc(O)cc2O)o1 | -4.4 | i
O=C1c2ccccc2C(Nc2ccc3c(c2)OCCO3)N1Cc1ccco1 (stereo unspecified) | -1.2 | i
C=CCn1c(SCc2nc(N)nc(N3CCCCC3)n2)nnc1-c1ccco1 | 1.8 | /
CC(=O)Nc1nc(C=C(Cl)Cl)cs1 | 0.3 | /
COc1ccc(NC(=O)C2CCN(S(=O)(=O)c3cccc4cccnc34)CC2)cc1OC | -5.4 | /
Cc1cn([C@H]2C=C[C@@H](CO)O2)c(=O)[nH]c1=O | -0.6 | i
O=C(Nc1ccc2c(c1)OCCO2)c1ccc(NC(=O)C2CCCO2)cc1 (stereo unspecified) | 3.6 | /
Cc1ccc(-n2ncc3c(N4CCN(c5ccccc5)CC4)ncnc32)c(C)c1 | 1.4 | i
O=C(O)c1ccc2c(c1)C(=O)N(c1cc(C(=O)O)ccc1Br)C2=O | -0.6 | /
O=C(C1CCCN(S(=O)(=O)c2cnc[nH]2)C1)N1CC(=O)N(CCc2ccccc2)C(=O)C1 (stereo unspecified) | -1.3 | i
Cc1n[nH]c(C)c1S(=O)(=O)N1CCN(C(=O)c2ccco2)CC1 | 1.4 | /
CCCCNC(=O)CSc1cc(=O)n(C)c2ccccc12 | -1.6 | /
O=C(NCc1ccco1)c1c2c(nc3ccccc13)CCC2 | 0.7 | i
O=C(CC1Oc2ccccc2NC1=O)NCCCN1CCN(Cc2ccccc2)CC1 (stereo unspecified) | 0.7 | /
Cc1cc(Cl)ccc1OCCCC(=O)NO | -2.2 | i
O=C(CCc1nc(-c2cccs2)no1)Nc1cnc2ccccc2c1 | 9.2 | /
COc1ccc2c(c1)[nH]c1c(=O)n(CC3CCCO3)cnc12 (stereo unspecified) | 2.8 | i
Cc1cc(NC(=O)c2cc3n(n2)C(C(F)(F)F)CC(c2ccco2)N3)no1 (stereo unspecified) | 0.2 | /
CC(=O)N1CCC(Nc2ccc(C)cc2)CC1 | 0.4 | /
COc1ccc2c(c1)CCc1c(C(=O)N3CCCCCC3)noc1-2 | 0.4 | /
CC(=O)c1cc(-c2ccccc2)[nH]c1N1CCOCC1 | -0.1 | /
CC(C(=O)NCCCN1CCOCC1)n1cccc1C(=O)c1ccccc1 (stereo unspecified) | 0.0 | i
O=C(O)CC(Cc1ccccc1)c1ccc2c(c1)OCO2 (stereo unspecified) | 1.3 | /
O=C(CCS(=O)(=O)c1cccc2nonc12)N1CCCc2ccccc21 | -0.6 | /
CCn1cc(C(=O)NCc2cccnc2)c2cc(OC)c(OC)cc2c1=O | -0.1 | /
CCc1ccc(-c2nc(CSCC(=O)N3CCN(c4ncccn4)CC3)c(C)o2)cc1 | 2.3 | /

Additional entries.
SMILES | Proteasome disasm | VCAM-1 up
Cc1csc(NC(=O)CCn2c(=O)sc3ccccc32)n1 | -0.3 | /
CN(Cc1ccccc1)C(=O)CCNS(=O)(=O)c1ccc2c(c1)oc(=O)n2C | -0.3 | /
CS(=O)(=O)N1Cc2ccccc2CC1C(=O)Nc1ccccc1C(N)=O (stereo unspecified) | -1.1 | /
Cn1cnc(S(=O)(=O)N2CCc3ccccc32)c1 | -3.3 | /
CC(=Nc1cccc(O)c1)c1sc2ccccc2c1O | 4.7 | i
COc1cc(NS(=O)(=O)c2ccc(N)cc2)nc(OC)n1 | 0.1 | i
O=C1C2CCCN2C(c2cccc(F)c2)N1c1cccc(Cl)c1 (stereo unspecified) | -0.1 | /
Cc1[nH]c(=O)[nH]c(=O)c1S(=O)(=O)N1CCN(c2cccc(Cl)c2)CC1 | 0.1 | i
CC(=O)c1ccccc1OCCCN1CCCCC1 | 1.6 | /
COC(=O)C(C)Sc1nnc(Cc2cc(=O)[nH]c(=O)[nH]2)n1-c1cccc(OC)c1 (stereo unspecified) | -2.3 | /
O=C(NCc1ccccc1)N1CCn2c(nc3ccccc32)C1 | -1.5 | i
Cc1nn(C)cc1CNC(=O)C1C2CCC(O2)C1C(=O)O (stereo unspecified) | 1.7 | /
O=C(CN1c2cccc3cccc(c23)S1(=O)=O)N1CCOCC1 | 0.3 | i
COc1ccc(C2C(C(=O)N3CCOCC3)CCC(=O)N2c2ccc(OC)cc2)cc1 (stereo unspecified) | -1.1 | /
COc1ccc(CN2C(=O)[C@@H]3C(c4ccc(F)cc4)=NO[C@@H]3C2=O)cc1 | -0.2 | i

Not a retest: an excerpt of the list.
SMILES | Proteasome disasm | VCAM-1 up
CCn1cc(C(=O)NCc2cccnc2)c2cc(OC)c(OC)cc2c1=O | -0.1 | /
CCc1ccc(-c2nc(CSCC(=O)N3CCN(c4ncccn4)CC3)c(C)o2)cc1 | 2.3 | /
Cc1csc(NC(=O)CCn2c(=O)sc3ccccc32)n1 | -0.3 | /
CN(Cc1ccccc1)C(=O)CCNS(=O)(=O)c1ccc2c(c1)oc(=O)n2C | -0.3 | /
CS(=O)(=O)N1Cc2ccccc2CC1C(=O)Nc1ccccc1C(N)=O (stereo unspecified) | -1.1 | /
Cn1cnc(S(=O)(=O)N2CCc3ccccc32)c1 | -3.3 | /
CC(=Nc1cccc(O)c1)c1sc2ccccc2c1O | 4.7 | i
COc1cc(NS(=O)(=O)c2ccc(N)cc2)nc(OC)n1 | 0.1 | i
O=C1C2CCCN2C(c2cccc(F)c2)N1c1cccc(Cl)c1 (stereo unspecified) | -0.1 | /
Cc1[nH]c(=O)[nH]c(=O)c1S(=O)(=O)N1CCN(c2cccc(Cl)c2)CC1 | 0.1 | i
CC(=O)c1ccccc1OCCCN1CCCCC1 | 1.6 | /
COC(=O)C(C)Sc1nnc(Cc2cc(=O)[nH]c(=O)[nH]2)n1-c1cccc(OC)c1 (stereo unspecified) | -2.3 | /
O=C(NCc1ccccc1)N1CCn2c(nc3ccccc32)C1 | -1.5 | i
Cc1nn(C)cc1CNC(=O)C1C2CCC(O2)C1C(=O)O (stereo unspecified) | 1.7 | /

Continued.
SMILES | Proteasome disasm | VCAM-1 up
CC(CN1CCN(C)CC1)OC(=O)c1ccc(Cl)cc1Cl (stereo unspecified) | -0.2 | i
CCOC(=O)CSC1=C(C#N)C(c2ccc(Cl)cc2)C(C(=O)OC)C(=O)N1 (stereo unspecified) | -0.8 | i
Cc1ccc(S(=O)(=O)Cc2ccc(C(=O)NCCCN3CCCC3=O)o2)cc1 | -0.6 | /
COc1ccc(-c2nc(C#N)c(NCCCN3CCOCC3)o2)cc1 | -0.3 | /
COc1cccc(-c2nn(C)c3sc(C(=O)N4CCN(c5ccccn5)CC4)cc23)c1 | 0.3 | /
c1ccc(-c2nc(-n3ccnc3)nc(-n3ccnc3)n2)cc1 | 0.1 | /
COc1ccc(OC)c(NC(=O)CNC(=O)Cn2cnc3ccccc3c2=O)c1 | 1.0 | /
COc1ccc(OC)c2sc(N3CCCCC3)nc12 | 6.8 | /
COc1cccc(C2=NOC(C(=O)NC(C)C)C2)c1 (stereo unspecified) | 0.6 | /
O=C(CNS(=O)(=O)c1ccc(Br)s1)NCC1COc2ccccc2O1 (stereo unspecified) | 0.9 | /
CC1CCCN(S(=O)(=O)c2ccc3c(c2)CCN3C(=O)C2CCC2)C1 (stereo unspecified) | -0.4 | /
Cc1nc2ccccc2c2oc(C(=O)Nc3ccc4c(c3)OCCO4)cc12 | 7.4 | /
COc1cccc2sc(Nc3nc(C)c(C(C)=O)s3)nc12 | -1.8 | /
Cc1ccc(-n2nc3c(c2NC(=O)c2c(-c4ccccc4Cl)noc2C)CSC3)cc1 | 0.9 | /
CC1CCCCN1CCNC(=O)c1cnn2ccccc12 (stereo unspecified) | -4.7 | /
CC1=C(C(=O)Nc2ccc(Cl)cc2)C(c2cccs2)n2nnnc2N1 (stereo unspecified) | -0.2 | /
CCc1ccccc1NC1c2ccccc2C(=O)N1c1cccnc1 (stereo unspecified) | 0.3 | /
O=C(CCS(=O)(=O)c1cc(Br)cc2c1N(C(=O)C1CC1)CC2)NCc1ccco1 | -1.1 | /
Cc1c(C(=O)Nc2cccc(C(F)(F)F)c2)oc2ccc(S(=O)(=O)N3CCOCC3)cc12 | 1.4 | /
CC(C)c1cc(C(=O)Nc2cc(Cl)ccc2O)no1 | -2.6 | /
Cc1cccc(-n2ncc3c(N(CCO)CCO)ncnc32)c1 | 0.0 | i
Cc1ccc(OC(=O)NC2CCS(=O)(=O)C2)cc1C (stereo unspecified) | 0.6 | i
CCOC(=O)N1CCN(C(=O)c2cc3sccc3n2C)CC1 | -0.1 | /
Cc1ccc(-n2nnnc2SCC(=O)N2CCN(C(=O)c3ccco3)CC2)c(C)c1 | 1.8 | i
CSc1ccccc1NC(=O)CN(c1ccccc1)S(=O)(=O)N(C)C | -10.4 | i
COc1cc2nc(SCC(=O)NCc3ccco3)n(Cc3ccc(Cl)cc3)c(=O)c2cc1OC | -3.3 | /
O=C(O)c1cc2nc(C3CC3)cc(C(F)(F)F)n2n1 | 0.1 | /
O=C(O)c1ccccc1NS(=O)(=O)c1ccc2c3c(cccc13)C(=O)N2 | -1.5 | /
O=C(c1ccco1)N1CCN(C(=O)c2sccc2-c2ccccc2)CC1 | 0.9 | i
CC(C)OCCCNC(=O)C1CCC(=O)N1C(C)C (stereo unspecified) | -0.7 | /

Continued; the last 2 above are carried over.
SMILES | Proteasome disasm | VCAM-1 up
O=C(c1ccco1)N1CCN(C(=O)c2sccc2-c2ccccc2)CC1 | 0.9 | i
CC(C)OCCCNC(=O)C1CCC(=O)N1C(C)C (stereo unspecified) | -0.7 | /
CCc1ccccc1NC(=O)C1CCCN(S(=O)(=O)c2c(C)noc2C)C1 (stereo unspecified) | 0.4 | /
CCS(=O)(=O)N1CCCC(C(=O)NCCCOC(C)C)C1 (stereo unspecified) | -0.6 | /
CCCOc1ccc(N2C(=O)C3ON(c4ccccc4)C(c4ccc(O)c(OC)c4)C3C2=O)cc1 (stereo unspecified) | 0.9 | i
COC(=O)c1[nH]c(C)c(/C(O)=C2\C(=O)C(=O)N(CCN(C)C)C2c2ccccc2OC)c1C (stereo unspecified) | -1.7 | i
CCCCn1cc(C(C)(C)C)c(C#N)c1NC(C)=O | -0.9 | /
O=C(O)CCc1ccc(-c2ccc(F)cc2)n1CCC(=O)O | 1.2 | i

Bioassay records: PubChem, several laboratories
